HPGD block – blocks human HPGD enzyme activity. P15428. purified HPGD, NADH fluorescence kinetic, PGE2 substrate. Potency, µM, inactives show at the highest dose activity change, negative = inhibition, usual class: inhibitors. actives 4.3% (n = 150,000); active = well fitted inhibition curve with a large enough effect (not every such curve was filed as active); inconclusive = small, poorly fitted or top-dose-only effect, or another doubt; inactive = no such curve, though single readings can be large or run the other way;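 further: top concentration of the series not given in the record; plate controls included wells without enzyme; inactives centre near -10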
Target sequence (P15428 whole entry, looked up): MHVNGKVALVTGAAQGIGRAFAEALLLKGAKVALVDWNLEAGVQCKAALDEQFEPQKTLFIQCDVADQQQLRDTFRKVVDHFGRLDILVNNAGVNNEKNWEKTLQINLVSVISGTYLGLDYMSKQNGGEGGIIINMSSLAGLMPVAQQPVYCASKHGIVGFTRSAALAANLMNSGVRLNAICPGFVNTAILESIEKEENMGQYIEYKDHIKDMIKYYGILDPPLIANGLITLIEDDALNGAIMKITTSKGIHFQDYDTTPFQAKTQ
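NADH formation kinetics: reaction with 30 uM PGE2 and 1 mM NAD+ (final), 20 nM enzyme, Tris-HCl pH 8 with Tween 20, after 15 min compound preincubation at room temperature. Fluorescence change, last versus first of five reads.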
* hit, by the source's call; ? = inconclusive; & = joins results of further samples. On the % scale 0 is the no-effect control and ±100 the full control effect; potency means the concentration at half of the fitted maximal effect.

compound | HPGD block
CCOC(=O)CN(C(=O)Cn1nnc(-c2ccc(OC)cc2)n1)C(C(=O)NC1CCCC1)c1ccc(F)cc1 (centres undefined) | -16%
COc1ccc(CC(=O)OCn2nnc3ccccc3c2=O)cc1 | ?
COc1cccc(C(=O)CN2C3=NCCCN3c3ccccc32)c1 | -4%
CCOC(=O)c1[nH]c(C)c(C(=O)NCc2cccnc2)c1C | -14%
Cc1cccc(COCC(CC(C)C)N2CCN(C(=O)c3ccc(C(F)(F)F)cc3)CCC2=O)c1 (centres undefined) | -6%
Cn1cc(SCC(=O)N2CCOCC2)c2ccccc21 | -13%
COc1cc(C(=O)NNC(=S)NC(=O)c2ccc(Cl)cc2)cc(OC)c1OC | -26%
CN(C)S(=O)(=O)N(Cc1ccc(Br)cc1)c1ccccc1 | -12%
COc1cc(NC(=S)NNC(=O)CC(C)C)c(OC)cc1Cl | 32µM*
C[N+](C)([O-])CCC=C1c2ccccc2CCc2ccccc21 | -1%
CN(C)CC(=O)Nc1ccc(S(N)(=O)=O)cc1 | -6%
O=c1[nH]c(CSc2nc(-c3ccccc3)cs2)nc2ccccc12 | -14%
Cc1noc(C)c1S(=O)(=O)NCCN1CCN(c2ccccc2)CC1 | -7%
Cc1cccc(N=Nc2ccc(O)c3ncccc23)c1 | -18%
CC(C)(C)c1ccccc1OCC(=O)NCCC(=O)O | -9%
O=c1[nH]c(CSc2nnc(-c3ccccc3)n2C2CCCCC2)nc2ccccc12 | -9%
Cc1onc(-c2c(F)cccc2Cl)c1C(=O)NC1=NCCS1 | -1%
COc1ccc(OC)c(Nc2nc(-c3sc(NC(=O)C(C)(C)C)nc3C)cs2)c1 | ?
CCn1cc(Cl)c(C(=O)NNC(=O)CCn2nc(C)c([N+](=O)[O-])c2C)n1 | -7%
Cc1cccc(-n2nnc(C(=O)Nc3ccc(F)cc3)c2N)c1 | -26%
O=C(NCCCN1CCCC1=O)NC12CC3CC(CC(C3)C1)C2 | -6%
COc1ccc(C(=O)CSc2nnc(CNC(=O)c3ccc(OC)c(OC)c3)n2C)cc1 | -12%
C=CCNC(=S)NNC(=O)C(CCCC)CC(C)O (centres undefined) | -5%
N#CCCN(CCC#N)C(=O)COc1ccc(Cl)cc1Cl | 0%
CC1CCCCC1NS(=O)(=O)c1ccc(S(=O)(=O)N2CCN(CCC#N)CC2)cc1 (centres undefined) | 4%
C/C(N)=C(\C#N)C(=O)NCCc1ccccn1 | -5%
O=C(Nc1cccnc1Cl)c1cc(-c2ccco2)on1 | -5%
C[C@H]1[C@@H](O)[C@@H](C)\C=C/C=C\C=C/C=C\C=C/C=C\C=C/[C@@H](O[C@H]2O[C@@H](C)[C@@H](O)[C@@H](N)[C@@H]2O)C[C@@H]2O[C@](O)(C[C@@H](O)C[C@@H](O)[C@@H](O)CC[C@@H](O)C[C@@H](O)CC(=O)O[C@H]1C)C[C@@H](O)[C@H]2C(=O)O (stereo in doubt) | -4%
CCOc1ccccc1C(=O)NN1C(=O)C2CCCCC2C1=O (centres undefined) | -2%
COc1cc(OC)cc(C(=O)N2CCC(C(=O)Nc3ccc4c(c3)OCCO4)CC2)c1 | -2%

2 entries picked at random from the list so far, as already listed:
compound | HPGD block
COc1cc(OC)cc(C(=O)N2CCC(C(=O)Nc3ccc4c(c3)OCCO4)CC2)c1 | -2%
O=C(Nc1cccnc1Cl)c1cc(-c2ccco2)on1 | -5%

(list continues)
compound | HPGD block
CCCN(C(=O)CSc1nc2c(cnn2-c2ccccc2)c(=O)[nH]1)C1CCS(=O)(=O)C1 (centres undefined) | -4%
COc1ccccc1N1CCN(C(=O)c2cc(-c3ccc(Cl)c(Cl)c3)on2)CC1 | -14%
CCOC(=O)CNC(=O)CSc1ncnc2c1cnn2-c1ccccc1 | -8%
CC(=O)Nc1cc(NC(C)=O)cc(C(=O)OCC(=O)N2CC(C)OC(C)C2)c1 (centres undefined) | 3%
C=CCNC(=O)c1onc(CSc2cccc(Cl)c2)c1C(=O)O | -16%
COC(=O)c1sccc1NC(=O)Nc1ccc(Cl)c(Cl)c1 | ?
CCOc1ccc(NCCC#N)cc1 | -1%
C=CCn1c(=O)c2c3c(sc2n2c(Nc4ccc(C(=O)OCC)cc4)nnc12)CCCC3 | -17%
CC(C)COP(=O)(c1ccc(N(C)C)cc1)C(O)c1ccncc1 (centres undefined) | 28µM*
O=C1C=C(NCC2CCCO2)CC(c2ccccc2)C1 (centres undefined) | 0%
Cc1ccc(C(=O)NCCn2c(N)c(C#N)c3nc4ccccc4nc32)cc1 | ?
Cc1ccc(C(=O)n2nc(-c3ccccc3)nc2NCc2ccco2)cc1 | -17%
CCc1ccc(CCC(=O)Nc2sc(C)c(C)c2C(=O)OC)o1 | ?
C=CCn1c(SCC(=O)Nc2cc(C)c(Cl)cc2OC)nnc1-c1ccco1 | -7%
CCC(CC)C(=O)c1c[nH]c(C(=O)NCCCN2CCOCC2)c1 | 0%
CCN(CC)S(=O)(=O)c1ccc(Cl)c(NC(=O)c2cc(Cl)cc(Cl)c2)c1 | -14%
COc1ccccc1NC(=O)c1nn(-c2ccc(F)c(F)c2)ccc1=O | -12%
CCOCCCNC(=S)Nc1cc(C)cc(C)c1 | ?
Cc1ccc(Cl)cc1N1CCN(C(=O)c2ccc3nc[nH]c3c2)CC1 | -6%
O=C(Nc1cccc(-c2nc3ccccc3s2)c1)c1ccc2c(c1)OCO2 | -21%

2 successive entries already listed:
compound | HPGD block
CCOCCCNC(=S)Nc1cc(C)cc(C)c1 | ?
Cc1ccc(Cl)cc1N1CCN(C(=O)c2ccc3nc[nH]c3c2)CC1 | -6%

(further entries)
compound | HPGD block
NS(=O)(=O)c1cccc(NC(=O)CCSc2ccc(Cl)cc2)c1 | -9%
COc1cc(Cc2ccc(N)c(OC)c2)ccc1N | 0%
O=C(OCC1OC2C(Oc3nc(=O)ccn32)C1O)c1ccccc1 (centres undefined) | -14%
N/C(=N\OC(=O)Cc1cccs1)c1ccccc1 | -20%
COc1ccc(OC)c(S(=O)(=O)N2CCc3ccccc32)c1 | -10%
N#CCc1ccc(NS(=O)(=O)c2ccc(C3CCCCC3)cc2)cc1 | -11%
Cn1c(=O)c2[nH]c(-c3ccccc3Cl)c(O)c2n(C)c1=O | -73%
c1ccc2[nH]c(CN3CCN(c4ncnc5c4oc4ccccc45)CC3)nc2c1 | -26%
CC(=O)Nc1ccc2c(c1)nc(CCN1CCC(C)CC1)n2C | -9%
C[C@@H](CS(=O)(=O)Cc1ccccc1)C(N)=O | -13%
COC(=O)CNC(=O)c1ccc2c(c1)S(=O)(=O)c1ccccc1C2=O | -18%
CCOC(=O)c1c2n(c3ccc(O)cc13)CCC2 | -15%
COc1ccc(O)c(/C=N/n2c(-c3ccco3)csc2=Nc2cccnc2)c1 | -7%
N#CC(C#N)=NNc1ccc2cn[nH]c2c1 | -16%
CC(C)(C)Nc1nc(NC(C)(C)C)nc(-n2ccnc2)n1 | -6%
CCn1c2ccccc2c2cc(NC(=O)COC(=O)c3cccc(S(=O)(=O)NC)c3)ccc21 | -7%
Cc1cccc(NC(=O)CSc2nnc(-c3cc(C)n(-c4ccccc4)c3C)o2)c1C | -18%
COc1ccc(C2C(=O)c3ccccc3C2=Nc2ccc(Br)cc2)cc1 (centres undefined) | 7.1µM*
Cc1ccc(NC(=O)CN(C)C(=O)Cn2cc(C(F)(F)F)cc(Cl)c2=O)cc1 | 0%
Cc1nnc(-c2cnn(C)c2N)n1Cc1ccc(Cl)cc1 | 1%

In the list so far, these have a COOH group.
compound | HPGD block
CC(C)(C)c1ccccc1OCC(=O)NCCC(=O)O | -9%
C[C@H]1[C@@H](O)[C@@H](C)\C=C/C=C\C=C/C=C\C=C/C=C\C=C/[C@@H](O[C@H]2O[C@@H](C)[C@@H](O)[C@@H](N)[C@@H]2O)C[C@@H]2O[C@](O)(C[C@@H](O)C[C@@H](O)[C@@H](O)CC[C@@H](O)C[C@@H](O)CC(=O)O[C@H]1C)C[C@@H](O)[C@H]2C(=O)O (stereo in doubt) | -4%
C=CCNC(=O)c1onc(CSc2cccc(Cl)c2)c1C(=O)O | -16%

More compounds
compound | HPGD block
CC1CCC(NC(=O)Cn2c3c(c(-c4ccccc4Cl)cc2=O)CCC3)CC1 (centres undefined) | -9%
CCOC(=O)CC(Nc1nc(N2CCOCC2)nc(N2CCOCC2)n1)c1ccccc1Cl (centres undefined) | -8%
C=CCNC(=O)c1c(Cl)cccc1Cl | ?
CC(CCc1ccco1)NC(=O)Nc1cccc(F)c1 (centres undefined) | -3%
COC(=O)COc1ccc(Cl)cc1C1Nc2ccccc2C(=O)N1c1ccc(OC)cc1 (centres undefined) | ?
CCc1ccccc1NC(=O)c1ccc(Cn2cc([N+](=O)[O-])cn2)cc1 | -2%
Cc1cc(C)cc(C(=O)N(c2ccccn2)C(C)c2ccco2)c1 (centres undefined) | -1%
Cc1cccc(C(=O)NC2CCN(C(=S)NCc3ccco3)CC2)c1 | -8%
C#C[C@]1(O)CC[C@H]2[C@@H]3CCc4cc(O)ccc4[C@H]3CC[C@@]21C | -2%&-11%&-4%
NNc1nc2ccc(F)cc2s1 | -13%

A draw from above in order of number of heavy atoms, rising:
compound | HPGD block
C/C(N)=C(\C#N)C(=O)NCCc1ccccn1 | -5%
CCc1ccc(CCC(=O)Nc2sc(C)c(C)c2C(=O)OC)o1 | ?
O=C(Nc1cccc(-c2nc3ccccc3s2)c1)c1ccc2c(c1)OCO2 | -21%
C=CCn1c(=O)c2c3c(sc2n2c(Nc4ccc(C(=O)OCC)cc4)nnc12)CCCC3 | -17%

The listing continues:
compound | HPGD block
CCCC(=Nc1ccccc1)C1=C(O)C(C(=O)OC)C(C)(C)CC1=O (centres undefined) | -6%
Cc1nn(CC#N)c(=O)n1-c1ccccc1 | -2%
CCOC(=O)c1c(N)sc2c1CCCC2 | ?
O=C(NCc1ccco1)[C@@H]1CCCN1C(=O)c1cccs1 | -4%
Cc1cc(C)c2[nH]c(=O)c(CN(Cc3cccs3)C(=S)NCc3ccco3)cc2c1 | -16%
C=CCn1c(SCC(=O)NC2CCCCC2)nnc1C1CCCCC1 | 1%
CN1CCN(CC#CCn2c3ccccc3c3ccccc32)CC1 | -4%
COc1ccc(C(NC(=O)c2ccco2)c2ccc(OC)c(OC)c2)cc1 (centres undefined) | -12%
O=C(O)c1cc(S(=O)(=O)N2CCCCCC2)c(Cl)cc1Cl | -4%
COc1ccc(OC)c(-c2cc(C3CCN(c4ncccc4[N+](=O)[O-])CC3)[nH]n2)c1 | 14µM*
COC(=O)CSC1=NS(=O)(=O)c2ccccc21 | 22µM*
Cc1nnc2sc(-c3ccncc3)nn12 | -12%
CC(C)(C)N(NC(=O)Nc1ccccc1)C(=O)c1ccccc1 | -2%
Cc1ccc2c(c1)N(CCCC(=O)NCCC1=CCCCC1)C(=O)CO2 | -17%
CCOc1ccc(NC(=S)N(CCc2c(C)[nH]c3ccc(C)cc23)Cc2ccncc2)cc1 | -13%
COCC(=O)Nc1ccc(-c2cn3cccnc3n2)cc1 | ?
CCCn1c(SCC(=O)NCc2cccs2)nc2c1c(=O)n(C)c(=O)n2C | -2%
CC1=CC(=NOC(=O)c2cccc([N+](=O)[O-])c2)C=C(C)C1=O | -14%
CCC(=O)N1CCc2cc(S(=O)(=O)NCCN3CCC(C)CC3)ccc21 | -1%
Cc1[nH]n(C(N)=S)c(=O)c1C(c1ccccc1)C(C#N)C#N (centres undefined) | -9%
CCS(=O)(=O)NC(C)C(c1cccs1)N1CCN(C)CC1 (centres undefined) | -10%
Cc1sc2nc(C3CC3)nc(SCC(=O)NCc3ccco3)c2c1C | -17%
COC(=O)c1sc2ncccc2c1OCc1ccc(Cl)cc1 | -11%
CCc1ccc(N2CC(C(=O)N/N=C/c3cccc([N+](=O)[O-])c3)CC2=O)cc1 (centres undefined) | -29%
S=c1[nH]nc(-c2ccccn2)n1/N=C/c1cccc2ccccc12 | 3.5µM*
COC(=O)c1ccc(-c2nc3ccc(C)cc3o2)cc1 | ?
C=CCn1c(SCc2ccc(C#N)cc2)nnc1-c1ccc(C)cc1 | 2%
O=S(=O)(c1cnc[nH]1)N1CCCCCC1 | -2%
CCOC(=O)C1CCCN(C(=O)c2cnn3c(C(F)(F)F)cc(-c4ccccc4)nc23)C1 (centres undefined) | 25µM*
C=CCNC(=S)NNC(=O)CCC(O)CCCCC (centres undefined) | -6%
CC(C)NC(=O)CCCC(=O)NC(C)C | -7%
COc1ccccc1/C=C/C(=O)OCC(=O)c1c(N)n(C)c(=O)n(C)c1=O | ?
C=CCn1c(N)c(C(=O)NC2CCCCC2)sc1=S | -6%
Cc1[nH]c(=S)c(C#N)c(C)c1C(=O)Nc1ccccc1 | 22µM*
O=S(=O)(NCC1CCCO1)c1ccc(Cl)c(C(F)(F)F)c1 (centres undefined) | -11%
O=C(NCC1CCCCC1)c1ccco1 | -4%
C=CCNC(=O)CCCOc1ccc(C)cc1 | 7.1µM*
O=C(O)CSc1c[nH]c2ccccc12 | -3%
Cc1c(Cl)cccc1-n1c(SCC(=O)N(C)Cc2ccccc2)nnc1-c1ccncc1 | -13%
CN(C)C(=O)NC(O)C(Cl)Cl (centres undefined) | -20%
COc1cc(C(=O)N/N=C(\c2ccccc2)c2ccccn2)cc(OC)c1OC | -4%
Cn1c(COc2ccc(Cl)cc2)nnc1SCC(=O)Nc1ccc2c(c1)CCC2 | -4%
COc1ccccc1OCC(O)CN1C(=O)NC(C)(C)C1=O (centres undefined) | -7%
Cc1ccc(Nc2nc(N)nc(CSc3nnc(-c4ccncc4)o3)n2)cc1 | 5%
Cn1c(=O)oc2cc(S(=O)(=O)N3CCCC(C(=O)NCc4cccs4)C3)ccc21 (centres undefined) | -28%
CCS(=O)(=O)N1CCC(C(=O)NC2CCCCCCC2)CC1 | -10%
COc1ccc(/C=C/c2cc(-c3ccc(C)cc3)o[n+]2C)cc1 | ?

From PubChem BioAssay

This is a subset, so the mix of outcomes need not match the whole.
